Sa RN4220 lethal = S. aureus RN4220 growth inhibition. OD600, 16 h. inhibition, % (no concentration beside the values). 330,000 compounds, 0.33% hits;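 active = z-score of -3 or lower and OD600 up to 0.18 on both plates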;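 note: plate controls were untreated cells for no effect and reference antibiotic for full effect; stock transfer was 100 nL into about 80 µL; one replicate is shown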
ugtP null kill = growth inhibition of S. aureus ugtP deletion strain; 330,000 compounds, 0.54% hits; AID 1259309; S. aureus RN4220 ugtP deletion, OD600 growth, 16 h; some inactives read as strong as hits; growth inhibition, % (test concentration not listed);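 active = z-score under -3 and OD600 up to 0.15 on both plates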;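 note: plate controls were untreated wells for no effect and antibiotic for full effect; wells of about 80 µL received 100 nL stock; the first replicate is given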
Autofluor counter = counter-screen for toxin protease inhibitors: compound fluorescence | AID 624483 | 360,000 compounds, 3.1% hits | compound autofluorescence counterscreen, microsphere flow cytometry; hits give high values | fluorescence intensity (test concentration not listed);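 active = at least 3 SD above the mean of all compounds, about 16000 in these data; inconclusive = too few beads counted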;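 note: 100 nL of 1 mM stock went into each well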
PrP 5UTR inh = inhibition of PrP 5' UTR reporter expression; cell-based PrP 5' UTR mRNA reporter, plate reader; inhibition, % (no concentration beside the values); 340,000 compounds, 0.35% hits;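 active = every replicate at 50% or more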;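 note: 0 = median of the neutral control wells; tested in H4 reporter cells; numbers are from one replicate; inactives centre near -14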
Mtb hypoxia inh = inhibitors of hypoxia-regulated fluorescent reporter in Mycobacterium tuberculosis; fluorescence inhibition, % (no concentration beside the values); M. tuberculosis hypoxia-regulated fluorescent reporter, fluorescence; 300,000 compounds, 0.1% hits; AID 1159583;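 active = 35 to 45% if threefold the growth effect, above 45% if 1.5-fold the growth effect; inactive = the rest, general growth blockers included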;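 note: wells of about 50 µL received 100 nL stock; 0% = vehicle wells and 100% = reference inhibitor wells; whole bacteria with a GFP reporter of the hypoxia response; strong numbers were not always called active; many hits fall short of the cut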
BJeLR viability = BJeLR cell viability loss. BJeLR (HRASV12) viability, CellTiter-Glo ATP luminescence, 48 h; reference of the scale not given here. inhibition, % (no concentration beside the values). 300,000 compounds, 0.17% hits. AID 1554;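 active = replicate mean above 50%; inconclusive = above 50% but judged a plate artefact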;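 note: 50 nL library stock added to about 25 µL; numbers are from one replicate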
Mtb hypoxia inh growth = further read-out of Mtb hypoxia inh, marked with its call; growth inhibition, %; measured here: M. tuberculosis growth (absorbance);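 0% = vehicle and 100% = reference antibiotic; read after six days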
Starred values were filed as active, the others as inactive; ? = inconclusive; · = not tested or not shown. The order is random; 4% or so of the library scored in one or more.

SMILES | Sa RN4220 lethal | ugtP null kill | Autofluor counter | PrP 5UTR inh | Mtb hypoxia inh | Mtb hypoxia inh growth | BJeLR viability
COc1ccc2[nH]c3c(=O)n(CCCCC(=O)N4CCCC4)c(=S)[nH]c3c2c1 | -2.0 | 6 | 23557* | -7 | -4 | 1 | 0
CCCCCc1cc(=O)c2ccccc2o1 | 10 | 5 | 4219 | -18 | · | · | ·
O=c1cccc2n1CC1CC2CN(S(=O)(=O)c2cc(Cl)ccc2Cl)C1 (stereo not drawn) | -2.4 | 2 | 5100 | -22 | -3 | 10 | -3
Cc1ccc(NC(=O)COC(=O)COc2ccc(Cl)cc2C)c([N+](=O)[O-])c1 | 5.9 | 4 | 2486 | 0 | 15 | 6 | -5
O=C(NCc1ccc(OC(F)(F)F)cc1)c1cccc2c1C(=O)c1ccc(N3CCCCC3)cc1S2(=O)=O | 9.1 | 4 | 3803 | -20 | 19 | 6 | ·
COc1cccc(-c2nc(CSCC(=O)N3CCc4ccccc43)c(C)o2)c1 | 10 | 15 | ? | -19 | 3 | -8 | 4
Cc1ccc(-n2nc3c(c2NC(=O)c2ccco2)CS(=O)C3)cc1 (stereo not drawn) | 1.8 | 4 | 5904 | -14 | 2 | 13 | 8
Clc1cc(-c2ccccc2)nc(-c2ccccc2)n1 | 0.2 | 21 | 4960 | -14 | -2 | 8 | -3
Cc1cc(C)n2nc(SCC(=O)N(C)c3ccccc3)nc2n1 | 4.2 | 3 | 4489 | -13 | 3 | 7 | -11
CCOC(=O)CN1C(=O)C(=O)N(Cc2ccccc2)C1=O | -1.2 | 3 | 4268 | -2 | -2 | -4 | 2
CC(SC1=NCCS1)C(=O)Nc1nnc(-c2ccc(F)cc2)s1 (stereo not drawn) | 2.0 | -21 | 5830 | -33 | 5 | 13 | -2
COc1ccc(C(=O)N2N=C(c3cccc(OC)c3)CC2(O)C(F)(F)F)cc1 (stereo not drawn) | 14 | 8 | 2222 | -84 | 9 | 11 | 3
COc1ccccc1CO/N=C/NC(=O)c1c(OC)ccnc1Oc1ccc(F)cc1 | 3.8 | -1 | 9636 | -29 | 12 | 4 | -2
CCC(C)NC(=O)C1CCN(c2nc(C)cc(C)n2)CC1 (stereo not drawn) | 0.9 | -1 | 8329 | -11 | -3 | 0 | 0
COc1ccc(S(=O)(=O)N2CCCCCC2)cc1NC(=O)c1ccccc1 | 13 | -1 | 5418 | -17 | 3 | 8 | 5
Oc1c(C=C2N=c3ccccc3=N2)sc(=S)n1-c1ccccc1 | -5.4 | -9 | 2577 | -5 | -7 | -4 | -11
CC(=O)Cn1ncc(Br)c(Br)c1=O | 8.2 | 7 | 4148 | -26 | 15 | 11 | 33
COc1ccccc1N1CCN(C(c2cccs2)c2nnnn2C2CCCC2)CC1 (stereo not drawn) | 10 | 6 | 5452 | -10 | 5 | -3 | -1
N=C1S/C(=C\c2ccco2)C(=O)N1c1ccc2c(c1)OCO2 | 0.1 | -9 | 2698 | -16 | 18 | 16 | 0
COCCSc1nnc(NC(=O)C2CCN(C(=O)c3ccco3)CC2)s1 | 2.5 | 0 | 3811 | -5 | 2 | -4 | 4
CC(C)=CC(=O)OCC(=O)Nc1ccc(Cl)cn1 | 5.0 | 2 | 3218 | -4 | -1 | 2 | 10
COC(=O)c1cc(C(O)(C(=O)OC)C(F)(F)F)c(N=CN(C)C)s1 (stereo not drawn) | 4.2 | 10 | · | · | 6 | -1 | ·
COc1ccc(OC)c(NC(=O)C2CCN(S(C)(=O)=O)CC2)c1 | 1.8 | 7 | 7932 | -7 | -1 | -3 | -1
CC1=C(C(=O)NCc2ccccn2)C2(CCC(C)CC2)OC1=O (stereo not drawn) | -12 | -2 | 6469 | -7 | -2 | -6 | -11
COc1ccccc1C(=O)N1CC(=O)Nc2ccc(C)cc2C1c1ccc(F)cc1 (stereo not drawn) | 0.7 | 17 | 3663 | -24 | 3 | -8 | -7
Cc1ccc2c(CN(C)Cc3cccc(F)c3)cc(=O)oc2c1 | 7.6 | 3 | 3800 | -83 | 2 | -3 | -3
NC(=O)c1cc2ccccc2oc1=NNC(=O)c1cccc(F)c1 | 5.4 | -5 | · | · | 15 | 8 | ·
Cc1ccc(S(=O)c2ccc(C)cc2)cc1 | 6.6 | 8 | 20056* | -2 | 15 | 19 | 2
CCCCC(=O)N1CCCC(C)C1 (stereo not drawn) | 3.6 | -4 | 4008 | -11 | 23 | 18 | -9
Cc1ccc(C(=S)N2CCN(Cc3ccccc3)CC2)s1 | 5.2 | 15 | 4511 | -14 | -1 | 12 | -3
Cc1nn(C(=O)N2CCOCC2)c(C)c1CN1C(=O)c2ccccc2C1=O | 0.1 | 1 | 5739 | -9 | 3 | 7 | 1
CC1CCCN(C(=O)NC2CC(=O)N(c3ccc4c(c3)OCCO4)C2)C1 (stereo not drawn) | 2.8 | 9 | 5487 | -2 | 9 | -3 | -7
Cc1ccc(OCC(=O)N(C)CC(=O)Nc2ccccc2Cl)c([N+](=O)[O-])n1 | 1.0 | 6 | · | 10 | 3 | 3 | ·
CC(NS(C)(=O)=O)C(c1cccs1)N1CCN(c2ccccc2F)CC1 (stereo not drawn) | 4.7 | 6 | 8452 | -12 | 11 | 3 | -7
COc1cccc(NC(=S)NCc2cccs2)c1 | 1.7 | 5 | 2392 | -12 | 4 | 0 | -2
Cc1cccc(NC(=O)CN2C(=O)S/C(=C\c3ccc(O)c([N+](=O)[O-])c3)C2=O)c1 | -5.3 | 2 | 4687 | 2 | 14 | 12 | 3

5 entries out of the list, sorted by number of heavy atoms, smallest number first:
SMILES | Sa RN4220 lethal | ugtP null kill | Autofluor counter | PrP 5UTR inh | Mtb hypoxia inh | Mtb hypoxia inh growth | BJeLR viability
COc1cccc(NC(=S)NCc2cccs2)c1 | 1.7 | 5 | 2392 | -12 | 4 | 0 | -2
Cc1ccc2c(CN(C)Cc3cccc(F)c3)cc(=O)oc2c1 | 7.6 | 3 | 3800 | -83 | 2 | -3 | -3
CC1CCCN(C(=O)NC2CC(=O)N(c3ccc4c(c3)OCCO4)C2)C1 (stereo not drawn) | 2.8 | 9 | 5487 | -2 | 9 | -3 | -7
Cc1nn(C(=O)N2CCOCC2)c(C)c1CN1C(=O)c2ccccc2C1=O | 0.1 | 1 | 5739 | -9 | 3 | 7 | 1
Cc1cccc(NC(=O)CN2C(=O)S/C(=C\c3ccc(O)c([N+](=O)[O-])c3)C2=O)c1 | -5.3 | 2 | 4687 | 2 | 14 | 12 | 3

Later entries
SMILES | Sa RN4220 lethal | ugtP null kill | Autofluor counter | PrP 5UTR inh | Mtb hypoxia inh | Mtb hypoxia inh growth | BJeLR viability
COc1ccc(S(=O)(=O)N2CCOCC2)cc1NC(=O)c1cc2c(s1)CCCC2 | -1.2 | -1 | 2508 | -18 | -1 | 7 | -15
CC(=O)Nc1ccc(CN2CCCC(C(=O)c3cccc(C(F)(F)F)c3)C2)cc1 (stereo not drawn) | 5.8 | 7 | 2572 | -17 | -3 | -4 | 5
O=C(NCCCN1CCCC1=O)C1CCN(S(=O)(=O)c2cccc(Cl)c2Cl)CC1 | 4.7 | 15 | 6310 | -17 | 6 | -2 | ·
N#Cc1c(SCC(=O)Nc2nc3ccc(Br)cc3s2)sc2c(O)cc(=O)[nH]c12 | · | · | 5505 | -60 | · | · | 1
COc1ccc(NC(=O)C(=O)Nc2cccc3ccccc23)c(OC)c1 | 2.5 | 8 | 4087 | -18 | 11 | 4 | -2
COc1cc(Cl)ccc1OCc1cc(C(=O)N(C)C2CCOC2)no1 (stereo not drawn) | 1.9 | 3 | 5072 | -22 | 11 | 9 | 1
COCCNC(=O)C(=O)NCC(c1ccc2c(c1)OCO2)N1CCN(c2ccc(F)cc2)CC1 (stereo not drawn) | 2.5 | 5 | 6059 | -7 | 11 | 6 | -9
O=c1c(Cc2c(F)cccc2Cl)c(O)ccn1Cc1ccc(F)cc1 | 43 | 15 | 3644 | -14 | 3 | -4 | 0
COc1cc(CNCCO)cc(Br)c1OCc1ccccc1Cl | · | · | 12019 | -18 | · | · | 6
O=C(CCC(=O)N1CCN(S(=O)(=O)c2ccc(Cl)cc2)CC1)NCc1cccc(C(F)(F)F)c1 | 2.5 | -3 | 3432 | -24 | 11 | 11 | ·
CS(=O)(=O)Nc1ccc(C2=NN(C(=O)c3ccco3)C(c3cccc(F)c3)C2)cc1 (stereo not drawn) | 4.8 | 3 | 2545 | -34 | -2 | -4 | 6
Cn1cc(C(=O)NN=Cc2cccc([N+](=O)[O-])c2)c2ccccc21 | -0.9 | 0 | · | · | 5 | 0 | ·
CC1CCN(C(=O)Cn2nnc(-c3ccc([N+](=O)[O-])cc3)n2)CC1 | -0.4 | 3 | 4102 | -24 | -6 | -2 | -5
O=C1CC(=O)C(n2cncn2)C(c2ccc(Cl)cc2)C1 (stereo not drawn) | 3.6 | 7 | 14844 | 1 | 0 | -4 | -11
CC(C)CCN1CC(O)=C(c2nc3ccccc3[nH]2)C1=N | 6.3 | 4 | 8813 | -52 | 4 | 3 | 6
CCC1CCCCN1CCCNC(=O)Cn1ncn2nc(-c3ccc(OC)cc3)cc2c1=O (stereo not drawn) | -0.5 | 1 | 4495 | -23 | -2 | 13 | -4
Cc1c(C(=O)NCCCn2ccnc2)oc2ccccc12 | 2.1 | 8 | 4551 | -12 | 1 | 7 | 7
CCC(C)c1c(O)nc(SCC(=O)Nc2ccccc2)[nH]c1=O (stereo not drawn) | 2.5 | -5 | 4040 | -12 | 3 | 6 | -20
COC(=O)Cn1cnc2sc(C)c(S(=O)(=O)N3CCC(C)CC3)c2c1=O | 3.1 | 10 | 3588 | -15 | · | · | -10
CCCC[C@@H]1C[C@H]1[C@@H](NC(=O)c1ccco1)c1ccc(Cl)cc1 | · | · | 3687 | 0 | · | · | 9
O=C(CSc1nc(-c2ccccc2)cc(=O)[nH]1)Nc1ccccc1F | 3.3 | 3 | 3424 | -15 | 0 | 1 | -9
COc1ccccc1N(C)S(=O)(=O)c1ccc(C(=O)Nc2nc(C)cs2)cc1 | 11 | 15 | 4857 | -11 | 12 | -4 | 1
CCOC(=O)N1CCN(C(=O)c2noc3c2COc2ccccc2-3)CC1 | 4.1 | 3 | 5096 | -26 | 7 | -3 | -2
COCCn1c(SCC(=O)Nc2cc(C)on2)nnc1-c1c[nH]c2ccccc12 | -14 | -4 | 4535 | -12 | 6 | 1 | -6
COc1ccc(S(=O)(=O)NN=C(C)c2ccncc2)cc1OC | 0.7 | 2 | · | · | 9 | 2 | ·
COc1ccc(OC)c(-n2c(-c3ccc(C)cc3)n[nH]c2=S)c1 | 1.4 | 1 | 9768 | -10 | -8 | 0 | -3
COc1cccc(OCCNC(=O)c2ccc(C)cc2)c1 | 2.9 | 11 | 3619 | -1 | 8 | 11 | -2
CCS(=O)(=O)NCCNc1ccc([N+](=O)[O-])cc1 | -2.2 | -14 | 4056 | 41 | -10 | 3 | -3
S=C(Nc1ccccc1)Nc1ccc(OCc2ccccc2)cc1 | 3.0 | -4 | 19054* | -17 | · | · | -14
O=c1c2ccsc2ncn1Cc1ccccc1F | 7.7 | -1 | 2346 | -10 | 10 | 1 | ·
O=C(O)c1cccc(NC2=Nc3cccc4cccc2c34)c1 | 6.0 | -2 | 4479 | -13 | 13 | 10 | 3
CCCn1nnnc1SCC(=O)N1CCCCC1 | 0.2 | 7 | 3569 | -19 | 13 | 5 | -8
COc1ccc(C2=CSC3=NNC4(CCCCC4)NN23)cc1 | 3.2 | 6 | 3366 | -28 | 9 | 5 | 0
O=C1CC(c2ccc(S(=O)(=O)NC3CC3)cc2)CN1 (stereo not drawn) | -0.3 | 5 | 4678 | -5 | · | · | -2
CC(C)(C)NS(=O)(=O)c1cc(C(=O)O)ccc1Cl | 2.4 | 2 | 2378 | 0 | 3 | 3 | 1
O=S(=O)(c1cc(Cl)ccc1Cl)N1CCN(Cc2ccco2)CC1 | 0.1 | 2 | 5598 | -10 | -10 | -1 | -3
CC1CCN(c2ccc(C(=O)NCc3ccc4c(c3)OCO4)cc2[N+](=O)[O-])CC1 | -12 | 6 | 2106 | -52 | 7 | 9 | -3
N#CCSc1ccccc1NC(=O)COc1ccc(-c2nnco2)cc1 | 0.0 | -5 | 4489 | -10 | -6 | 7 | ·
O=C(O)c1ccccc1C=NNC(=S)NCc1ccccc1 | 3.4 | 5 | · | · | -4 | 5 | ·
COc1ccc(/C=C2\Sc3ccc(C(=O)N4CCN(Cc5ccccc5)CC4)cc3N(C)C2=O)cc1OC | -3.1 | -14 | 5554 | 7 | -14 | -10 | -4

High-throughput results from PubChem.
